# VDR inhibitor: blocks the human vitamin D receptor. 0.93% of 400,000 active. VDR-SRC2-3 peptide fluorescence polarization, 2 h. Potency, µM, inactives show max response, negative = inhibition, hits mostly inhibitors; active means well fitted inhibition curve with a large enough effect; inconclusive means small, poorly fitted or top-dose-only effect, or another doubt; inactive means no such curve, though single readings can be large or run the other way; further: series mostly up to about 120 µM
# Target sequence (P11473 whole entry, looked up): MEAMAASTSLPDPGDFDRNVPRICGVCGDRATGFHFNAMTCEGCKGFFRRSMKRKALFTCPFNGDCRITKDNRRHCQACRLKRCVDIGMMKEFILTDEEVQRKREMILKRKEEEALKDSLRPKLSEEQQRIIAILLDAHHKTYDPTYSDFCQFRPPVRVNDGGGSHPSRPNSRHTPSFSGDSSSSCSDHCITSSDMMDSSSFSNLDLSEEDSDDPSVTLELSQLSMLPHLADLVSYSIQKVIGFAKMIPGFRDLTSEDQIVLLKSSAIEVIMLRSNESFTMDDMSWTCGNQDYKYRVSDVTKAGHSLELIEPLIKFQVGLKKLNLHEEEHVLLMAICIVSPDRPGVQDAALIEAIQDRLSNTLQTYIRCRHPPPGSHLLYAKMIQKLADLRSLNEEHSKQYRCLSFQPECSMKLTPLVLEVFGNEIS
#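 Two reagent solutions held at 4 deg C in the dark were dispensed, compounds pinned at 23 nl, and the mixture incubated 2 h at room temperature. Read-out: fluorescence polarization of VDR–SRC2-3 peptide binding.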
# Active calls of the source: *; u = inconclusive; & = joins results of further samples. On the % scale 0 is the no-effect control and ±100 the full control effect; potency means the concentration at half of the fitted maximal effect.
VDR inhibitor	Structure
-7%	Cn1cccc1C(=O)NCc1ccc(S(N)(=O)=O)cc1
-5%	Clc1cccc(Cl)c1CSc1nnc(-c2ccncc2)s1
-16%	COCCNC(=O)C(c1ccc(C)cc1)N(Cc1ccccc1)C(=O)CCC(=O)Nc1ccccn1 (stereo not given)
-9%	CCn1cc(/C=C(\NC(=O)c2ccc(C)cc2)C(=O)NCCCN2CCOCC2)c2ccccc21
-16%	O=C(O)c1cc(Cl)c(Cl)cc1C(=O)Nc1cccc2ncccc12
-3%	CC1(C)OC(=O)N(NCc2ccccc2)C1(C)O (stereo not given)
0%	C/C(=N\NC(=O)c1ccc(Cl)c(Cl)c1)c1cccc(NC(=O)C(C)C)c1
-1%	Cc1ccc(-c2nnn(CC(=O)N(c3ccccc3F)C(C(=O)NCC3CCCO3)c3c[nH]c4ccccc34)n2)cc1 (stereo not given)
-2%	CCOc1ccccc1NC(=O)C(NS(=O)(=O)c1ccc2c(c1)CCC(=O)N2)c1ccccc1 (stereo not given)
-13%	O=C(CCNC(=O)c1ccc([N+](=O)[O-])cc1)Nc1nccs1
24%	O=C(Nc1ccc(Br)cc1Cl)Nn1cnnc1
-3%	Cc1ccc(-c2ccc(/C=N\NC(=O)C3C(=O)NCC3c3ccccc3)o2)cc1Cl (stereo not given)
-4%	Cc1ccc(O)c(-c2cc(-c3cccc(Br)c3)n[nH]2)c1
4%	Cc1cc(C(=O)OCn2nnc3ccccc3c2=O)c(C)n1-c1ccccc1
-11%	Cc1ccccc1NC(=O)COc1coc(CN2CCN(c3ccccc3)CC2)cc1=O
0%	Cc1ccc(-c2n[nH]c(=S)n2C)cc1
3%	Cc1ccc(/C=C/c2onc(C)c2S(=O)(=O)N2CCC(C(=O)NCc3ccc(C)o3)CC2)cc1
5%	O=C(CC(NC(=O)c1ccccc1Cl)c1ccccc1)Nc1ccc2c(c1)OCO2 (stereo not given)
-4%	Cc1cccc(CCN2C(N(C)C)=NC[C@@H]2Cc2ccccc2)c1
-5%&-2%	COc1ccc(C)cc1NC(=O)CN(C)S(=O)(=O)c1ccc2c(c1)CCCN2C(C)=O
-14%	Cn1ncc2c(NCCO)nc(Cl)nc21
3%	O=C(CNC(=O)c1ccc(-c2ccccc2)cc1)OCc1c(F)cccc1Cl
-12%	CC(=O)NC(=S)Nc1ccccc1N1CCCCC1
1%	O=C(CSc1nnc(CNC(=O)c2ccc(F)cc2)o1)Nc1ccc2c(c1)OCCO2
1%	CCCOc1ccc(NC(=O)C(=O)NCCCn2ccnc2)cc1
15%	Cc1cccc(NS(=O)(=O)c2cccc(C(=O)N3CCN(c4ccccn4)CC3)c2)c1
3%	Cc1noc(NS(=O)(=O)c2ccc(NC(=O)C(C)(C)C)cc2)c1C
6%	N#C/C(=N\Nc1ccc(Cl)c(Cl)c1)C(=O)C1CC1
-9%	Oc1c(Cl)cc(Cl)cc1C1=NNC(c2ccc(Cl)cc2)C1 (stereo not given)
-9%	Cc1[nH]nc2c1C(C(C)C)C(C#N)=C(N)O2 (stereo not given)
-8%	COc1ccc2c(C(=O)CCl)c[nH]c2c1
-10%	CC1=C(C(=O)N(C)C)C(c2cccs2)NC(=O)N1 (stereo not given)
-14%	COc1cc2ccccc2cc1C(=O)Nc1ccccc1N1CCCC1
-6%	CCOc1ccc(CNS(=O)(=O)c2c(C)nc3scc(C)n3c2=O)cc1OC
-10%	CC(C)(C)NC(=O)c1cccnc1Sc1ccccc1
10%	Cc1ccc(NC(=O)c2cc(S(=O)(=O)N3CCOCC3)cs2)cc1
1%	O=C(CSc1nc(=O)[nH]c2c1CCC2)NCc1ccc(Cl)cc1
-10%	CC(=O)Nc1ccc(/C=C2/Sc3ccccc3C2=O)cc1
8%	CCNS(=O)(=O)c1ccc(C)c(-n2cnnn2)c1C
-5%	COCCn1c(C)cc(C(=O)CSc2nnnn2C2CCCC2)c1C
17%	CS(=O)(=O)c1ccc(Cl)c(C(=O)NC2CCSc3ccccc32)c1 (stereo not given)
-11%	Cc1ccc(S(=O)(=O)N(CC(=O)Nc2cccnc2)c2ccccc2C)cc1
4%	CCCCNCc1ccc(OCc2ccc(Cl)nc2)c(OC)c1
-2%	COCCNC(=S)Nc1ccc2nc(N3CCCC3)cc(C)c2c1
1%	CCOc1ccc2ncc3c(-c4ccccc4)nn(CC(=O)Nc4cccc(F)c4)c3c2c1
0%	CCOC(=O)CCCn1ncn2c(cc3occc32)c1=O
-14%	CC(N=C1NC(C)(C)Cc2ccccc21)C(=O)O (stereo not given)
12%	COc1ccc(-c2cc(C(F)(F)F)nc(NCc3cccnc3)n2)cc1

# Arranged by molar mass (descending): some entries from above.
VDR inhibitor	Structure
1%	CCOc1ccc2ncc3c(-c4ccccc4)nn(CC(=O)Nc4cccc(F)c4)c3c2c1
1%	O=C(CSc1nc(=O)[nH]c2c1CCC2)NCc1ccc(Cl)cc1
-10%	CC(=O)Nc1ccc(/C=C2/Sc3ccccc3C2=O)cc1
0%	CCOC(=O)CCCn1ncn2c(cc3occc32)c1=O
-14%	CC(N=C1NC(C)(C)Cc2ccccc21)C(=O)O (stereo not given)

# (list continues)
VDR inhibitor	Structure
-6%	COc1ccccc1N1CCN(/N=C/C=C\c2ccccc2[N+](=O)[O-])CC1
-6%	CCOC(=O)CC[C@H](NC(=O)Cn1cnc2c(SC)nc(N)nc21)C(=O)OCC
4%	CCc1cccc(NC(=O)c2c(C)oc3ncnc(N4CCCCC4)c23)c1
u	Cc1nc(Nc2ccc(Br)cc2Br)c([N+](=O)[O-])c(=O)[nH]1
1%	COc1ccc(-c2nnc(SCC(=O)NC3CCCc4ccccc43)n2N)cc1 (stereo not given)
-15%&-6%	COc1cc(NC(=O)CSc2ccc(-c3ccccn3)nn2)cc(OC)c1
u	COc1ccc(CNc2nc3ccccc3n2C(C)C)cc1
-17%	CCCCOC(=O)/C(C#N)=C\c1ccc(-c2ccc(Cl)cc2)o1
-89%	O=C(CCN1Cc2ccccc2C1)c1ccc2c(c1)OCCO2
u	Nc1sc2c(c1C(=O)NCCc1ccccc1)CCC2
-5%	CC(NC(=O)Cc1ccc(F)cc1)c1ccccc1 (stereo not given)
-3%	CN1OC[C@@H]2CN(Cc3ccccc3)[C@H](c3cccc(Oc4ccccc4)c3)C[C@@H]21

# 5 of the compounds above, as comma-separated lines:
mol,VDR inhibitor
COc1cc(NC(=O)CSc2ccc(-c3ccccn3)nn2)cc(OC)c1,-15%&-6%
COc1ccc(CNc2nc3ccccc3n2C(C)C)cc1,u
CCCCOC(=O)/C(C#N)=C\c1ccc(-c2ccc(Cl)cc2)o1,-17%
O=C(CCN1Cc2ccccc2C1)c1ccc2c(c1)OCCO2,-89%
Nc1sc2c(c1C(=O)NCCc1ccccc1)CCC2,u

# (further entries)
VDR inhibitor	Structure
-2%	O=C(Nc1ccccc1N1CCN(c2ccccc2)CC1)c1ccccc1
u	CCN1CC(=O)Nc2cc(S(=O)(=O)N3CCOCC3)ccc21
2%	Cc1ccc(C)c(N2CCN(C(=O)c3cn(C)c4ccc(S(=O)(=O)N(C)C)cc4c3=O)CC2)c1
6%	O=C(NC1CCCC1)c1ccc(Cl)c(S(=O)(=O)N2CCOCC2)c1
50µM*	Cc1cc(C)nc(/N=C2\NC(=O)CC(C(=O)O)N2c2ccc(C)c(C)c2)n1 (stereo not given)
0%	CCCCNc1nc(NC)nc(Cl)c1SC
2%	COc1cccc(CNS(=O)(=O)c2ccc3c(c2)C(C(C)C)C(=O)N3)c1 (stereo not given)
4%	CCCCn1c(N)c(N(Cc2ccccc2OC)C(=O)COc2ccccc2OC)c(=O)[nH]c1=O
-12%	CSCCC(NS(=O)(=O)c1ccc(C)cc1)C(=O)N1CC=C(c2ccccc2)CC1 (stereo not given)
-3%	O=C(CCCN1C(=O)/C(=C/c2cccs2)SC1=S)Nc1cccc(O)c1
-15%	O=C(NCCc1ccccc1)C1CCC(Cn2c(=O)c3ccccc3n(Cc3cccc(F)c3)c2=O)CC1 (stereo not given)
-8%	O=C(Nc1ccc(Cc2ccncc2)cc1)c1ccc(Cl)c([N+](=O)[O-])c1

# Rewritten with tabs: 2 of the compounds above.
compound	VDR inhibitor
Cn1cccc1C(=O)NCc1ccc(S(N)(=O)=O)cc1	-7%
COCCNC(=O)C(c1ccc(C)cc1)N(Cc1ccccc1)C(=O)CCC(=O)Nc1ccccn1 (stereo not given)	-16%

# (next part)
VDR inhibitor	Structure
-1%	O=C(CNCc1ccncc1)Nc1cc(S(=O)(=O)N2CCCCC2)ccc1Cl
8%	CCOC(=O)c1c(NC(C)=O)sc2c(OCC(O)CNC(C)(C)C)c(Br)ccc12 (stereo not given)
12%	Cn1cc(S(=O)(=O)NCC2CCCO2)c(=O)n(C)c1=O (stereo not given)
10%	COc1cccc(N(C(=O)c2ccn[nH]2)C2(C(=O)Nc3c(C)cccc3C)CCCCC2)c1
-24%	CCOC(=O)c1ccc(N2C(=O)c3n[nH]c(-c4cccs4)c3C2c2cccc(OC)c2)cc1 (stereo not given)
-2%	O=C(NCc1nc2ccccc2[nH]1)c1ccc(S(=O)(=O)N2CCCC2)cc1
3%	CCC1CCCCN1C/C=C/c1ccccc1[N+](=O)[O-] (stereo not given)
11%	Cc1cc(-c2ccc([N+](=O)[O-])cc2)cc(C)n1
10%	O=C(COc1ccccc1)Nc1nnc2n1CCS2
-1%	CCN(CC)S(=O)(=O)c1cccc(-c2csc(C)n2)c1
9%	O=C(O)c1ccc(N2C(=O)c3ccc(C(=O)c4cccc([N+](=O)[O-])c4)cc3C2=O)cc1
-1%	O=C(NCc1cccc(CNC(=O)C(=O)NCC2CCCO2)c1)C(=O)NCC1CCCO1 (stereo not given)
7%	COc1cc2c(cc1OC)C(C(N)=O)NCC2 (stereo not given)
20µM*	COc1ccc(Cl)cc1NC(=O)CCS(=O)(=O)c1nc(-c2cccs2)cc(C(F)(F)F)n1
6%	Cc1ccc(C(=O)CCC(=O)N2CCN(c3ccc(F)cc3)CC2)cc1
0%	O=C(CCc1ccccc1)NCc1ccncc1
-17%	CSc1ccc(CN(C)C(C)C(=O)NCc2ccccc2)cc1 (stereo not given)
-8%	COc1ccc(-c2n[nH]c(=S)n2-c2ccccc2C)cc1
-14%	CC(C)COC(=O)c1ccccc1OC(=O)c1ccncc1
1%	COc1ccc(Cc2nnnn2CC(=O)O)cc1
10%	Cc1nc(NC(=O)C2CC2)sc1C
-5%	Cc1ccc(C2=NN(C(=O)CN3CCN(C4CCS(=O)(=O)C4)CC3)C(c3ccco3)C2)cc1 (stereo not given)
-1%	CNC(=O)NC(=O)CSc1cccc(C(F)(F)F)c1
-3%	Cc1nc2ccccc2c2oc(C(=O)N3CCC(C)CC3)cc12
6%	COc1ccc(OC2C(=O)N(c3ccc(C)c(C)c3)C2c2ccc(OC)c(OC)c2)cc1 (stereo not given)
2%	CC(=O)c1ccc(S(=O)(=O)N2CCn3cccc3C2c2ccc(C)cc2)cc1 (stereo not given)
9%	Cc1ccc(C)c(NC(=O)c2cc(S(=O)(=O)N3CCc4ccccc4C3)ccc2F)c1
12%	c1ccc(N2N=C(c3cccs3)CC2c2ccco2)cc1 (stereo not given)
-9%	C/C(CCC(C)C)=N\NS(=O)(=O)c1ccc(C)c([N+](=O)[O-])c1
11%	Cc1ccc(Cl)cc1N1CCN(CCCNC(=O)c2ccc3nc(N4CCCCC4)sc3c2)CC1
8%	CCOC(=O)[C@H]1[C@H]2COc3ccc(OC)cc3[C@@H]2N2C(=O)c3ccccc3NC(=O)[C@@]12C
14%	O=C(Oc1ccc(Br)cc1)c1cccc(S(=O)(=O)N2CCOCC2)c1
13%	O=C(Nc1ccccc1C(=O)N1CCOCC1)c1ccc(Cl)cc1
-12%	CCOC(=O)c1c(NC(=O)CSc2nc(C)cc(C)c2C#N)sc(C(C)=O)c1C
-9%	Cc1noc(NS(=O)(=O)c2ccc(N/C=C/C(=O)c3cccnc3)cc2)c1C
-2%	CC1NC(=O)N(C)[C@@H]2NC(=O)N(C)C(c3ccc([N+](=O)[O-])cc3)[C@@H]12 (stereo not given in full)
2%	COc1ccccc1C(=O)N(c1ccc(C)cc1)S(=O)(=O)c1ccc(Cl)cc1
-12%	COCCN(CC(=O)Nc1cccc(C)c1C)C(=O)Cn1cnc2ccccc2c1=O
9%	COc1ccc(NC(=O)c2c(-c3ccc(C)cc3)nnc3ccccc23)cc1Cl
4%	Cc1ccc(-c2nonc2NC(=O)c2ccc(F)cc2)cc1C
8%	COc1ccc(C(=O)N2CCC(c3nc4ccccc4o3)CC2)cc1
7%	O=C1NC(c2ccco2)Nc2ccccc21 (stereo not given)
4%	CCCCCCCCCC(=O)N1c2ccccc2NC(=O)C1CC(=O)Nc1ccc(C(=O)O)cc1 (stereo not given)
5%	Cc1ccc(-c2cc(C(F)(F)F)n3ncc(C(=O)N4CCN(C)CC4)c3n2)cc1
-5%	C/C=C/c1ccc(OCCOCCOc2cccc3cccnc23)c(OC)c1
3%	COc1ccc(CNC(=O)CN(C)S(=O)(=O)c2ccc3c(c2)n(C)c(=O)c(=O)n3C)cc1
-18%	Cc1ccc(NC(=O)[C@@H]2CCCN2C(=O)c2cccs2)cc1S(=O)(=O)N1CCCCC1
1%	COc1ccc(-n2c(COc3cccc(C)c3)n[nH]c2=S)cc1
-3%	Cc1cccc(CN2C(=O)NC(c3ccccc3)(c3ccccc3)C2=O)c1
-2%	CC(C)CN(C(=O)COC(=O)c1ccc2c(c1)OCCO2)c1c(N)n(Cc2ccccc2)c(=O)[nH]c1=O
6%	CCOC(=O)c1c(C)nc2c(c1-c1ccc(Cl)cc1)C(=O)CC(C)(C)C2
-14%	S=C(NCCc1ccccc1)N1CCc2ccccc2C1
1%	O=C(Cn1nnc(-c2ccc3c(c2)OCO3)n1)NCc1ccco1
-11%	O=C(N/N=C/c1ccc(Cl)c([N+](=O)[O-])c1)c1cnccn1
4%	C/C(CC(=O)Nc1ccc(F)cc1)=N\NC(=O)c1ccccn1
-5%	COc1ccc(/C=C(\NC(=O)c2ccco2)C(=O)NCCc2nc3ccccc3[nH]2)cc1

# The list is partial. The share of hits here may be higher or lower than overall.
